# Cruzain inh Det: cruzain (T. cruzi) inhibition with detergent; purified cruzain, Z-FR-AMC fluorescence, 0.01% Triton; Potency, µM, inactives show max response, negative = inhibition, actives largely listed as inhibitors; P25779; AID 1478; 200,000 tested, 0.43% active; active means well fitted curve in the direction sought with a large enough effect; inconclusive means small, poorly fitted or top-dose-only effect, or another doubt; inactive means no such curve, though single readings can be large; an effect the other way counts as inactive or inconclusive;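 further: plate controls were neutral wells for no effect and buffer without enzyme for full effect; nearly all actives have a fitted effect of over 40% in size; top concentration of the series not given in the record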
# Target sequence (P25779 123-467 limits assumed): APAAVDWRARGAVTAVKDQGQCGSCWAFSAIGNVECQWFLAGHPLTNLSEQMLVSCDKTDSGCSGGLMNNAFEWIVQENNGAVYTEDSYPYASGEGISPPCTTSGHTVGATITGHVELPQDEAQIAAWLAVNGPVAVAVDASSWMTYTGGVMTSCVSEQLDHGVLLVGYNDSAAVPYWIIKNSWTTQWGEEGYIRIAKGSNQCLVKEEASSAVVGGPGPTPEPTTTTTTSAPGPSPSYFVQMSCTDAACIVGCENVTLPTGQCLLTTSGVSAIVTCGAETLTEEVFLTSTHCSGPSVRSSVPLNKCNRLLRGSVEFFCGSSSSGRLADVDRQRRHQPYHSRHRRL
#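 Cruzain (1.5 nM) preincubated 15 min at RT with compound in 100 mM sodium acetate pH 5.5, 5 mM DTT, 0.01% Triton X-100. Reaction started with 2 uM Z-FR-AMC; AMC fluorescence (ex 360/em 450 nm) change over 60 s gave rate.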
# LASV entry inh: inhibitors of Lassa virus binding or cell entry; Lassa virus pseudotype entry inhibition, cell reporter; control for the full effect not named in the record; Potency, µM (doses to about 37.9 µM), inactives show at the top dose activity change, negative = inhibition, hits mostly inhibitors; 300,000 tested, 1.2% active; AID 540256; active means well fitted inhibition curve with a large enough effect; inconclusive means small, poorly fitted or top-dose-only effect, or effect the other way; inactive means flat fitted curve, though single readings scatter; tested in HEK293 cells; further: on the % scale 0 is the no-effect control and ±100 the full control effect; nearly all actives have a fitted effect of over 50% in size; luciferase read-out
# Cruzain noTriton: cruzain (T. cruzi) inhibition without detergent | P25779 | purified cruzain, Z-FR-AMC fluorescence, no detergent | Potency, µM, without a hit: max response, negative = inhibition, hits mostly inhibitors | 200,000 tested, 2.3% active | AID 1476; active means well fitted curve in the direction sought with a large enough effect; inconclusive means small, poorly fitted or top-dose-only effect, or another doubt; inactive means no such curve, though single readings can be large; an effect the other way counts as inactive or inconclusive;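 further: plate controls were enzyme without inhibitor for no effect and buffer without enzyme for full effect; nearly all actives have a fitted effect of over 40% in size; top concentration of the series not given in the record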
#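 Purified cruzain at 1.5 nM, pre-incubated 15 min with compound at room temperature in 100 mM sodium acetate pH 5.5, 5 mM DTT, 0.00005% Triton X-100. Reaction started with 2 uM Z-FR-AMC; AMC fluorescence increase over 60 s gives rate.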
# 2A StopGo: lowers the luciferase signal of an FMDV 2A StopGo reporter; human cells with a luciferase reporter of 2A StopGo recoding; control for the full effect not named in the record; Potency, µM (series often up to 57.9 µM), inactives show top-dose signal change, negative = less light; 410,000 tested, 1.2% active; AID 1159524; active = well fitted falling curve with a large enough effect; inconclusive = small, poorly fitted or top-dose-only effect; inactive = no such curve, though single readings can be large or run the other way; tested in HEK293T cells; further: on the % scale 0 is the no-effect control and ±100 the full control effect; nearly all actives have a fitted effect of over 45% in size; luciferase light after 4 h
# RE007 growth inh: less growth of the S. pombe RE007 Vpr strain; S. pombe RE007 Vpr strain, BacTiter-Glo ATP luminescence, 24 h; control for the full effect not named in the record; Potency, µM (highest dose often 92.2 µM), without a hit: at the top dose activity change, negative = less growth; 360,000 tested, 0.21% active; active = well fitted falling curve with a large enough effect; inconclusive = small, poorly fitted or top-dose-only effect; inactive = no such curve, though single readings can be large or run the other way;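 further: on the % scale 0 is the no-effect control and ±100 the full control effect; nearly all actives have a fitted effect of over 50% in size; the assay follows cell death caused by Vpr and the record does not say whether a fall means rescue or toxicity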
#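 Fission yeast RE007 carrying one integrated HIV-1 vpr copy, seeded at OD 0.01 in PMG+AL medium with 23 nL pinned compound. Grown 24 h at 30 degrees; viability read by BacTiter-Glo luminescence after 5 min.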
# Marburg entry inh: blocks Marburg virus binding to or entry into cells | 300,000 tested, 1.8% active | AID 540276 | Potency, µM (top dose mostly 37.8 µM), for the others: at the top dose activity change, negative = inhibition, hits mostly inhibitors | Marburg virus pseudotyped entry inhibition, cell reporter; control for the full effect not named in the record; about a third of the inactives were read at about 46 µM; active = well fitted inhibition curve with a large enough effect; inconclusive = small, poorly fitted or top-dose-only effect, or effect the other way; inactive = flat fitted curve, though single readings scatter; tested in HEK293 cells; about a fifth of its hits are not listed in these tables; further: on the % scale 0 is the no-effect control and ±100 the full control effect; luciferase read-out
# SARS PLpro yeast: inhibitors of SARS-CoV papain-like protease in yeast; Potency, µM (series often up to 32.9 µM), without a hit: at the highest dose activity, positive = growth rescue; 330,000 tested, 0.19% active; S. cerevisiae expressing SARS-CoV PLpro, growth rescue; control for the full effect not named in the record; AID 485353; further: 0% is about no effect; nearly all actives have a fitted effect of over 55% in size; growth read by luminescence after 48 h
# NS1 inh: influenza NS1 inhibition; Potency, µM (doses to about 46.1 µM), for the others: at the highest dose activity, positive = more growth; S. cerevisiae slowed by influenza A NS1, growth recovery by OD600; 270,000 tested, 0.4% active; further: actives are rising curves; nearly all actives have a fitted effect of over 50% in size
#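 Read-out: OD600 growth recovery of NS1-expressing budding yeast. Cells grown overnight at 30C in -URA glucose medium, washed, resuspended and diluted 1:100 in 2% galactose assay medium, pH 6.0. Same strain lacking NS1 served as positive control.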
# * marks the source's active call; other numbers are inactive results; ? = inconclusive; . = no result given; & = joins results of further samples; [ ] = dose if it differs, or a comment. Unless noted, the call rests on the fitted dose curve; in most records, active means well fitted rising curve with a large enough effect; inconclusive means small, poorly fitted or top-dose-only effect; inactive means no such curve, though single readings can be large or run the other way. Potency means the concentration at half of the fitted maximal effect.
SMILES,Cruzain inh Det,LASV entry inh,Cruzain noTriton,2A StopGo,RE007 growth inh,Marburg entry inh,SARS PLpro yeast,NS1 inh
O=C(O)c1ccc2c(=O)n3c(nc2c1)/C(=C/c1ccccc1Br)CC3,.,-1%,.,-7%,0%,-7%[46.1 µM],1%,13%
S=C(NCCc1ccc(Cl)cc1)Nc1ccc(Cl)cc1Cl,-8.0%,?,3%,22%,?,?,-94%,-60%
CCNCc1cc(Cl)cc(OC)c1OC(C)C,0.7%,-18%,-2%,-5%,-22%,?,-4%,10%
CCOC(=O)c1cc2c(N)c(C(=O)c3ccc(Br)cc3)sc2[nH]c1=O,.,.,.,20%,-4%,.,-2%,3%
CCc1nnc(NC(=O)C2CC(=O)N(c3ccc(C)cc3)C2)s1 (configuration not stated),-2.8%,-3%,-10%,5%,0%,?,5%,0%
Fc1ccc(CCNC(=S)Nc2ccc(F)c(Cl)c2)cc1,.,?,.,-29%,1%,4%[46.1 µM],-5%,-69%
c1ccc2c(c1)CCN(c1ncnc3nc[nH]c13)C2,-2.9%,-4%,-11%,-26%,3%,5%,-20%,-7%
O=C(Cc1ccc(Cl)cc1)NCCN1CCCC1,-2.8%,1%,-9%,-11%,3%,-9%,5%,0%
Cc1cc(C)cc(NC(=O)Cn2nnc(C(=O)NCc3cccs3)c2N)c1,.,2%[46.1 µM],.,18%,-13%,?,-1%,-1%
CCCN(CCC)CC(O)COc1ccccc1C(=O)Nc1ccccc1 (configuration not stated),.,3%,.,-6%,-8%,?,1%,2%
Cc1cc(C)cc(NC(=O)CSc2ccc(-c3ccccn3)nn2)c1,.,?,.,-16%,0%,15%,?,-7%
CCN1CCN(c2ccc(S(=O)(=O)N3CCOCC3)cc2NC(=O)c2ccc(F)cc2Cl)CC1,.,-9%,.,-24%,-6%,?,1%,.
O=C(NCc1cccs1)C1CCN(c2nccs2)CC1,-1.5%,-1%,-12%,-12%,-14%,16%,3%,0%
COC(=O)[C@H](CCSC)NS(=O)(=O)c1ccccc1Br,.,.,.,-8%,-1%,.,-1%,6%
Nn1cnnc1SCC(=O)Nc1ccc2c(c1)OCCO2,-7.1%,20%,-8%,.,10%,18%,2%,4%
O=C(CSCc1ccc(Cl)cc1)NCc1ccc2c(c1)OCO2,-2.0%,4%,0%,2%,-15%,-9%,.,-14%
CN(Cc1ccccc1)c1nc2c(c(=O)[nH]c(=O)n2C)n1Cc1ccccc1F,.,.,.,?,6%,.,-5%,-4%
CCOC(=O)c1sc(=S)n(CC)c1NC(=O)C1CC1,1.2%,-23%,0%,0%,4%,-16%,-2%,1%
Cc1nn(CC(=O)Nc2ccc3c(c2)nc2n3CCOC2)c(=O)c2ccccc12,3.2%,-23%,1%,-14%,12%,24%,7%,-1%
COc1ccc(CNC(=O)Cc2c(C)c3c(cc(C)c4c(C)c(C)oc43)oc2=O)cc1OC,-1.1%,29%[46.1 µM],7%,-6%,.,22%[46.1 µM],.,.
O=C(c1ccc(Cl)cc1)N1CCN(CCOc2ccccc2)CC1,.,-13%[46.1 µM],.,-21%,-1%,-3%[46.1 µM],-4%,-6%
O=C(Cn1cnc([N+](=O)[O-])c1)Nc1ccc(F)c(Cl)c1,.,.,.,-15%,0%,.,1%,-2%
COc1ccc(COc2ncnc3ccc(Br)cc23)cc1F,.,19%,.,17%,4%,?,-2%,-16%
Cc1ccnc2nc(C(=O)OCC(=O)NC3CCCC(C)C3C)nn12 (configuration not stated),.,10%,.,-7%,22%,?,4%,.
O=C(COc1ncnc2ccccc12)NCc1ccco1,.,11%,.,1%,38%,10%[46.1 µM],1%,.
Cc1ccc(CN=c2c([N+](=O)[O-])nn(-c3ccc(Cl)cc3)n2O)cc1,.,.,.,0%,?,.,-1%,9%
COc1cccc(-c2nc3ccccc3s2)c1O,.,?,.,-36%,-3%,?,-1%,-6%
COc1cc(/C=C(\NC(=O)c2ccccc2)C(=O)N2CC3CC(C2)c2cccc(=O)n2C3)cc(OC)c1OC (configuration not stated),.,0%,.,-5%,7%,?,0%,3%
O=C(CN1C(=O)CCSc2ccc(S(=O)(=O)N3CCCC3)cc21)NCc1ccccc1Cl,.,.,.,-14%,3%,.,-4%,8%
CC(C)c1ccc(NC(=O)N2CCN(c3ccc(Cl)c(Cl)c3)CC2)cc1,-4.8%,29%[46.1 µM],?,?,.,?,.,.
Cc1cc(Cl)c2ccccc2n1,1.1%,?,3%,-7%,6%,0%,14%,11%
CCOC(=O)N1CCN(C(=O)/C=C/c2ccc(OC)cc2)CC1,.,.,.,0%,-10%,.,0%,6%
CCOc1ccc(CNC(=O)c2sc3nc(C)cc(C)c3c2-n2cccc2)cc1,-2.9%,4%[46.1 µM],?,8%,.,-15%[46.1 µM],.,.
CCOc1cc(C2C(C(=O)OC)=CN(C3CCCC3)C=C2C(=O)OC)cc(Br)c1O,-9.0%,?,15%,.,6%,-19%,9%,-11%[9.22 µM]
CCOc1cccc(/C=N/NC(=S)Nc2cc(S(=O)(=O)N3CCOCC3)ccc2N2CCOCC2)c1O,-7.0%,?,-25%,?,12%,?,20%,?
CCOC(=O)c1c(NC(=O)c2ccc(Br)cc2)sc2c1CCCC2,-1.7%,8%[46.1 µM],-6%,-19%,.,.,.,.
COc1ccc(NC(=O)Cn2c(=O)c3cccn3c3ccccc32)cc1Cl,-5.7%,?,12%,-21%,.,.,.,.
Cc1ccc(CCNC(=O)c2sc3nc4n(c(=O)c3c2C)CCCC4)cc1,-5.7%,-1%[46.1 µM],-6%,-14%,.,.,.,.
O=C(COC(=O)c1cccc(S(=O)(=O)N2CCc3ccccc32)c1)NC1CCS(=O)(=O)C1 (configuration not stated),2.9%,7%,?,4%,-14%,9%&9%,-3%,-6%
Cc1c(/C=C2\NC(=O)NC2=O)c2ccccc2n1C,.,0%,.,-10%,6%,5%,?,16%
CNc1ccc(S(=O)(=O)NCC(=O)OCC(=O)Nc2cccc(Cl)c2Cl)cc1[N+](=O)[O-],-29%,-5%,?,-3%,-18%,0%,-8%,22%
COC(=O)c1ccc(Cn2c(C)cc(C)[n+]2C)o1,4.1%,5%,-2%,-10%,-10%,1%[46.1 µM],2%,0%
COC(=O)CN1C(=O)CSc2ccc(S(=O)(=O)Nc3cccc(Br)c3)cc21,-9.6%,0%[46.1 µM],-6%,42%[activator],.,.,.,.
COc1ccc(S(=O)(=O)c2nnn(-c3ccc(C)c(Cl)c3)c2C)cc1,-1.0%,?,1%,?,.,-15%[46.1 µM],.,.
COc1ccccc1CNC(=O)CCc1nc2ccccc2c(=O)[nH]1,7.0%,4%,-15%,-6%,8%,0%,0%,1%
COC(=O)c1ccc(CSCC(=O)Nc2cc(OC)cc(OC)c2)o1,4.1%,0%,9%,-7%,11%,-1%,9%,3%
CN1CCN(S(=O)(=O)c2cccc(C(=O)NCCOc3ccccc3F)c2)CC1,.,13%,.,40%[activator],-7%,27%,-2%,-5%
CC1CCN(S(=O)(=O)c2ccc(C(=O)N3CCOCC3)cc2)CC1,.,-4%,.,-14%,-1%,2%,-2%,7%
O=C(O)c1cc(-c2ccc(Cl)s2)nc2ccccc12,.,?,.,19%,-8%,11µM*,-3%,.
C=CCC(=O)N1CCCC(CNC(=O)c2ccc(-c3ccccc3)cc2)C1 (configuration not stated),.,.,.,-4%,5%,?,-1%,-2%

# The listing continues.
SMILES,Cruzain inh Det,LASV entry inh,Cruzain noTriton,2A StopGo,RE007 growth inh,Marburg entry inh,SARS PLpro yeast,NS1 inh
O=C(NCCOc1ccccc1Cl)C(=O)Nc1ccccc1,-2.1%,2%,-4%,33%[activator],3%,?,-7%,3%
Fc1ccc(/C=N/NC(=S)Nc2cccnc2)cc1,.,-6%,.,30%[activator],4%,0%,-7%,.
Cc1ccc(S(=O)(=O)C2(C(=O)N3CCN(c4cc(C)ccc4C)CC3)CC2)cc1,.,0%,.,?,9%,?,-3%,.
Cc1cc(C)nc(OC(C(=O)O)C(OCCC(C)C)(c2ccccc2)c2ccccc2)n1 (configuration not stated),.,.,.,-8%,3%,.,-3%,2.5µM*
CCCn1c(NC(=O)CN2C(=O)NC3(CCCC3)C2=O)nc2ccccc21,.,-1%,.,4%,-7%,10%,0%,.
CSCC(C)N1CCC(Oc2cccc(C(=O)NCc3ccccn3)c2)CC1 (configuration not stated),.,.,.,-10%,-9%,.,-9%,-4%
CCOC(=O)C1CCN(Cc2ccc(F)c(F)c2)CC1,3.3%,6%,-6%,2%,-3%,-1%,11%,7%
CC(Sc1nnnn1-c1cccc(F)c1)C(=O)NC1CCCC1 (configuration not stated),.,12%,.,-19%,14%,?,3%,.
O=C(Nc1ccc(Cl)cc1)N1N=CCC1c1ccccc1 (configuration not stated),.,9%,.,-6%,3%,22%[14.2 µM],-8%,-3%
COc1ccc(NC(=O)CCN2CCCC2)c(OC)c1,0.2%,9%,17%,12%,3%,3%,-3%,1%
CCN1CCN(c2nc(C)c3c(n2)CC(C)CC3=O)CC1 (configuration not stated),.,-10%,.,-13%,-15%,-1%[46.1 µM],0%,?
CC(=O)OCC(=O)C1(O)CCC2C3CC(F)C4=CC(=O)CCC4(C)C3C(O)CC21C (configuration not stated),.,5%[46.1 µM],.,14%,-3%,2%[46.1 µM],.,.
CC1CCCC(C)N1CC(O)COC1CCC(C(C)(C)C)CC1 (configuration not stated),.,.,.,?,20%,.,-5%,-26%
Cn1nc(-c2ccccc2F)c2cc(C(=O)N3CCN(c4ccccc4F)CC3)sc21,-6.1%,?,17%,-7%,.,-10%[46.1 µM],.,.
CC1Cc2ccccc2N1CC(=O)Nc1ccc(S(=O)(=O)N(C)C)cc1 (configuration not stated),.,.,.,-4%,6%,.,-2%,6%
COc1ccc(N2CCN(C3CCCN(Cc4cccc(OC)c4)C3)CC2)cc1 (configuration not stated),.,-12%[46.1 µM],.,-15%,0%,?,-3%,-1%
CN(C)CCNC(NC(=O)c1cccs1)C(Cl)(Cl)Cl (configuration not stated),2.4%,3%,2%,-24%,-6%,20%,-4%,12%

# Screening results as filed in PubChem.
